# Compound activity: PubChem BioAssay, National Center for Advancing Translational Sciences (NCATS)
# Lassa entry inh = qHTS for Inhibitors of binding or entry into cells for Lassa Virus | AID 540256, 2011 | Lassa virus pseudotype entry inhibition, cell reporter; control for the full effect not named in the record | Potency, µM (series often up to 37.9 µM), for the others: at the top dose activity change, negative = inhibition, hits mostly inhibitors | actives 1.2% (n = 300,000); active means well fitted inhibition curve with a large enough effect; inconclusive means small, poorly fitted or top-dose-only effect, or effect the other way; inactive means flat fitted curve, though single readings scatter; tested in HEK293 cells; note: % is set by controls: 0 for no effect and ±100 for the full control effect; nearly all actives have a fitted effect of over 50% in size; luciferase read-out
# Cruzain inh Det = qHTS Assay for Promiscuous and Specific Inhibitors of Cruzain (with detergent); Cruzipain (Trypanosoma cruzi), P25779; actives 0.43% (n = 200,000); purified cruzain, Z-FR-AMC fluorescence, 0.01% Triton; Potency, µM, for the others: max response, negative = inhibition, usual class: inhibitors; AID 1478, 2009;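 note: plate controls were neutral wells for no effect and buffer without enzyme for full effect; nearly all actives have a fitted effect of over 40% in size; top concentration of the series not given in the record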
# Target sequence (P25779 123-467 limits assumed): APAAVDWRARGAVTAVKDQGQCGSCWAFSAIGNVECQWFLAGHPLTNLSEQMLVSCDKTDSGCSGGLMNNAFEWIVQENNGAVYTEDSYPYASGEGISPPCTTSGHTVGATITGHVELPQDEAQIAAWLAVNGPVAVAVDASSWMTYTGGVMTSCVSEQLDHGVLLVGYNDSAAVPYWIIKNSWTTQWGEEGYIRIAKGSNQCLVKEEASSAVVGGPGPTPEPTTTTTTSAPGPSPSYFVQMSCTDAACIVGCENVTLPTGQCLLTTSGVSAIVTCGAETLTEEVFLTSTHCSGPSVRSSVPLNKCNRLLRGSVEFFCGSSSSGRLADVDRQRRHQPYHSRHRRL
#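 Z-FR-AMC hydrolysis (2 uM substrate) by cruzain (1.5 nM) monitored kinetically at ex 360/em 450 nm after 15 min room-temperature compound exposure; 0.01% Triton X-100, pH 5.5, 5 mM DTT.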
# StopGo reporter = High Throughput Screening for Foot and Mouth Disease Virus Antivirals; human cells with a luciferase reporter of 2A StopGo recoding; control for the full effect not named in the record; actives 1.2% (n = 410,000); Potency, µM (doses to about 57.9 µM), without a hit: at the top dose signal change, negative = less light; active = well fitted falling curve with a large enough effect; inconclusive = small, poorly fitted or top-dose-only effect; inactive = no such curve, though single readings can be large or run the other way; tested in HEK293T cells; note: % is set by controls: 0 for no effect and ±100 for the full control effect; nearly all actives have a fitted effect of over 45% in size; luciferase light after 4 h
# Cruzain inh noDet = qHTS Assay for Promiscuous and Specific Inhibitors of Cruzain (without detergent); purified cruzain, Z-FR-AMC fluorescence, no detergent; Potency, µM, for the others: max response, negative = inhibition, actives largely listed as inhibitors; actives 2.3% (n = 200,000); Cruzipain (Trypanosoma cruzi), P25779;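 note: plate controls were enzyme without inhibitor for no effect and buffer without enzyme for full effect; nearly all actives have a fitted effect of over 40% in size; top concentration of the series not given in the record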
#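 Purified cruzain at 1.5 nM, pre-incubated 15 min with compound at room temperature in 100 mM sodium acetate pH 5.5, 5 mM DTT, 0.00005% Triton X-100. Reaction started with 2 uM Z-FR-AMC; AMC fluorescence increase over 60 s gives rate.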
# NS1 function inh = qHTS Assay for Inhibitors of Influenza NS1 Protein Function. S. cerevisiae slowed by influenza A NS1, growth recovery by OD600. Potency, µM (doses to about 46.1 µM), without a hit: top-dose activity, positive = more growth. actives 0.4% (n = 270,000); active means well fitted rising curve with a large enough effect; inconclusive means small, poorly fitted or top-dose-only effect; inactive means no such curve, though single readings can be large or run the other way; note: nearly all actives have a fitted effect of over 50% in size
#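 A cell-based growth assay was used: compounds that relieve NS1-induced slow growth of budding yeast raise OD600. Assay medium was yeast nitrogen base with ammonium sulphate and -URA supplement, pH 6.0, with 2% galactose.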
# MARV entry inh = qHTS for inhibitors of binding or entry into cells for Marburg Virus; Marburg virus pseudotyped entry inhibition, cell reporter; control for the full effect not named in the record; about a third of the inactives were read at about 46 µM; Potency, µM (doses to about 37.8 µM), without a hit: at the highest dose activity change, negative = inhibition, usual class: inhibitors; actives 1.8% (n = 300,000); active = well fitted inhibition curve with a large enough effect; inconclusive = small, poorly fitted or top-dose-only effect, or effect the other way; inactive = flat fitted curve, though single readings scatter; tested in HEK293 cells; about a fifth of its hits are not listed in these tables; note: % is set by controls: 0 for no effect and ±100 for the full control effect; luciferase read-out
# RE007 growth inh = qHTS Assay for Inhibitors of the HIV-1 protein Vpr. S. pombe RE007 Vpr strain, BacTiter-Glo ATP luminescence, 24 h; control for the full effect not named in the record. Potency, µM (top dose mostly 92.2 µM), for the others: at the top dose activity change, negative = less growth. actives 0.21% (n = 360,000). AID 651644, 2012; active = well fitted falling curve with a large enough effect; inconclusive = small, poorly fitted or top-dose-only effect; inactive = no such curve, though single readings can be large or run the other way;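 note: % is set by controls: 0 for no effect and ±100 for the full control effect; nearly all actives have a fitted effect of over 50% in size; the assay follows cell death caused by Vpr and the record does not say whether a fall means rescue or toxicity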
#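 Fission yeast RE007 carrying one integrated HIV-1 vpr copy, seeded at OD 0.01 in PMG+AL medium with 23 nL pinned compound. Grown 24 h at 30 degrees; viability read by BacTiter-Glo luminescence after 5 min.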
# SARS PLP yeast = qHTS of Yeast-based Assay for SARS-CoV PLP | S. cerevisiae expressing SARS-CoV PLpro, growth rescue; control for the full effect not named in the record | actives 0.19% (n = 330,000) | AID 485353, 2010 | Potency, µM (highest dose often 32.9 µM), without a hit: at the highest dose activity, positive = growth rescue; active means well fitted rising curve with a large enough effect; inconclusive means small, poorly fitted or top-dose-only effect; inactive means no such curve, though single readings can be large or run the other way; note: 0% is about no effect; nearly all actives have a fitted effect of over 55% in size; growth read by luminescence after 48 h
# Active calls of the source: *; u = inconclusive; x = not tested or not shown; & = joins results of further samples; [ ] = remark or other dose. Unless noted, calls come from the whole dose curve; as a rule, active = well fitted curve in the direction sought with a large enough effect; inconclusive = small, poorly fitted or top-dose-only effect, or another doubt; inactive = no such curve, though single readings can be large; an effect the other way counts as inactive or inconclusive. Potency is the fitted concentration of half-maximal effect.
SMILES,Lassa entry inh,Cruzain inh Det,StopGo reporter,Cruzain inh noDet,NS1 function inh,MARV entry inh,RE007 growth inh,SARS PLP yeast
CC(=O)N1CCc2cc(S(=O)(=O)CCC(=O)NCc3cccs3)ccc21,-14.9%,4.0%,12.8%,0.1%,3.1%,-5.3%,-1.0%,20.2%
CC(C)(C)NC(=O)c1nn(Cc2ccccc2)c(=O)c2ccccc12,u,x,11.9%,x,x,14.2%,3.7%,u
Cc1ccc(C(=O)Oc2ccc(-c3nccc(-c4ccccn4)n3)cc2)cc1,1.0%,1.2%,43.9%[activator],0.2%,5.9%,u,-0.6%,3.4%
Cc1cccc(NC(=O)CCNC(=O)c2ccccc2)c1,22.0%[46.1 µM],x,11.5%,x,2.5%,u,-9.9%,-2.0%
COc1ccc(C(=O)N(Cc2sccc2C)C2CCS(=O)(=O)C2)cc1 (stereo not given),1.6%,-1.8%,-19.9%&-17.3%,-10.2%,0.1%,-1.1%,3.5%,u
N#C/C(=C/c1cccc(C(F)(F)F)c1)c1nc(CCN2C(=O)c3ccccc3C2=O)cs1,u,-6.0%,-15.4%,-3.3%,19.9%,25.6%,-18.7%,3.3%
CN(C)/C=C(/C(=O)c1ccc(Cl)c(Cl)c1)c1nnnn1-c1ccccc1,x,x,14.6%,x,3.0%,x,-6.1%,-1.2%
N=C1C(c2ccccc2)=C(O)CN1c1ccc2c(c1)OCO2,4.8%,4.6%,x,-11.3%,-1.8%,10.1%,3.8%,-4.0%
CCOC(=O)c1c(C)[nH]c(C)c1S(=O)(=O)N1CCCC(C(=O)N2CCN(c3ccccc3F)CC2)C1 (stereo not given),-5.3%[46.1 µM],1.2%,23.9%,-3.7%,x,x,x,x
O=C(OCc1ccco1)c1cccnc1,-0.7%,x,7.0%,x,x,-1.3%,12.4%,-4.3%
COc1ccc(-c2noc(CN(C)C(=O)c3ccc4c(c3)OCO4)n2)cc1,-15.5%,x,-19.4%,x,-39.4%,1.7%[46.1 µM],20.5%,1.1%
CCCc1cc(=O)c2c(O)ccc(OC)c2o1,17.8%,x,3.7%,x,-3.4%,6.7%,-21.1%,0.5%
CN(CC(=O)O/N=C(\N)c1cccc([N+](=O)[O-])c1)S(=O)(=O)c1ccccc1,4.2%,-4.2%,-6.2%,-2.2%,2.8%,-10.1%,4.6%,-3.2%
COc1ccc(C(=O)ON=C2C=C(C)C(=O)C(C)=C2)cc1,x,x,1.5%,x,5.9%,x,-8.0%,-0.3%
CCCCOCP(=O)(CCCC)COCCCC,2.6%,-0.6%,-2.3%,25.9%,-1.9%,2.1%,14.4%,2.2%
CCc1cc(OCCCSc2nc(C)cc(=O)[nH]2)ccc1Cl,10.4%,-2.2%,-18.8%,3.4%,-10.0%,18.1%,19.4%,-16.8%
O=C(CN1C(=O)c2ccccc2S1(=O)=O)NCCSC1CCCCC1,-2.0%,-1.1%,9.9%,-8.1%,-3.3%,0.0%,9.2%,8.2%
COCCn1c(N)c(C(=O)OCc2ccccc2)c2nc3ccccc3nc21,u,-28.0%,-9.6%,u,-152.1%,-29.0%,3.9%,-20.2%
O=C(CCCOc1ccc(Cl)cc1)Nc1ccc(N2CCOCC2)cc1,x,x,-10.4%,x,3.3%,x,0.0%,-1.2%
COc1ccc(NC(=O)CC(c2ccc(F)cc2)c2ccc(OC(C)C)cc2)cc1 (stereo not given),u,1.3%,0.0%,8.7%,-6.7%,-1.9%,12.4%,5.5%
CS(=O)(=O)Nc1cccc(C2=NN(C(=O)c3ccco3)C(c3ccco3)C2)c1 (stereo not given),u,x,-29.3%,x,-16.7%,u,17.7%,-3.4%
CC1=C(/C=C/c2ccccc2)CCN(C)C1,36.9%[14.3 µM],4.5%,37.5%[activator],3.5%,15.6%,17.0%,-7.4%,-6.9%
Cc1cc(N/C=C(\C#N)S(=O)(=O)c2ccccc2Cl)nc(C)n1,-19.9%,x,-4.6%,x,7.7%,u,-23.9%,0.0%
COCc1cc(=O)[nH]c(/N=C(\N)Nc2ccc(Cl)c(Cl)c2)n1,1.1%,x,-2.0%,x,1.0%,-21.6%[46.1 µM],9.3%,0.2%
N#Cc1cnc(Nc2ccc(F)cc2)nc1N,-0.8%,x,68.7%[activator],x,-2.5%,-6.0%,4.6%,-2.8%
COc1ccc(S(=O)(=O)N2CCN(Cc3cc(OC)c(OC)c(OC)c3)CC2)cc1,1.0%,x,u,x,-17.8%,x,7.1%,x
S=C(Nc1ccccc1Cl)N1CCCC(c2ccccc2)=N1,-13.5%,x,-9.0%,x,1.4%,-22.9%[46.1 µM],-10.0%,-1.2%
COC(=O)C(C)Oc1ccc(Cl)c(CN2OCC(C)(C)C2=O)c1 (stereo not given),-22.7%[46.1 µM],x,37.3%[activator],x,x,6.8%[46.1 µM],6.9%,x
Cc1c2cnn(-c3ccccc3)c(=O)c2c(C)n1CCCC(=O)Nc1cc(F)ccc1F,-0.9%[46.1 µM],-3.7%,-15.3%,12.9%,x,-16.9%[46.1 µM],x,x
CCc1ccc(S(=O)(=O)c2nnn3c2nc(Nc2cccc(C)c2C)c2sccc23)cc1,-26.3%[46.1 µM],-0.1%,-23.5%,-1.7%,x,x,x,x
O=C(CSc1c[nH]c2ccccc12)NCC1CCCO1 (stereo not given),x,6.9%,-12.7%,0.5%,4.0%,x,-5.5%,4.0%
O=C(CN1CCN(c2ccccc2O)CC1)Nc1ccc2c(c1)CCC2,u,-3.6%,-1.9%,-12.0%,-2.5%,u,2.5%,12.8%
CCOC(=O)c1cccc(Nc2nc(C(=O)OCC)nc3ccccc23)c1,u,-8.9%,u,u,x,x,x,x
CN(CC(=O)Nc1ccccc1C(F)(F)F)C(=O)C1=COCCO1,u,x,-0.5%,x,x,1.5%,0.6%,5.6%
CCc1ccc(NC(=O)c2ccc(F)c(S(=O)(=O)N(CC)c3ccccc3)c2)cc1,u,-2.7%,u,-5.5%,-5.7%,u,0.8%,1.5%
Cc1nc(COC(=O)c2ccc(CO)cc2)cs1,-2.5%,-1.8%,23.7%,1.9%,6.7%,21.4%[46.1 µM],-19.1%,-1.2%
CC(NC(=O)CSc1ncccc1C(=O)O)C1CC2CCC1C2 (stereo not given),x,x,1.0%,x,-0.4%,x,4.7%,0.6%
CCOC(=O)c1cnn(-c2nc(OC)cc(OC)n2)c1C(F)(F)F,-4.7%,-4.7%,-21.9%,21.6%,-2.6%,13.8%,-6.1%,-5.9%
O=c1[nH]c2c(cnn2-c2ccc(Cl)cc2)c(=O)n1-c1cccc(Cl)c1,u,x,-2.0%,x,6.6%,0.0%[46.1 µM],4.7%,0.6%
Cc1cc(C)nc(SCCCNCc2ccc(Br)cc2)n1,x,x,9.2%,x,13.2%,x,-14.9%,-6.8%

# Profiles, quoted from the list. Values in the order: Lassa entry inh | Cruzain inh Det | StopGo reporter | Cruzain inh noDet | NS1 function inh | MARV entry inh | RE007 growth inh | SARS PLP yeast
# `CC(NC(=O)CSc1ncccc1C(=O)O)C1CC2CCC1C2` (stereo not given) as listed: x | x | 1.0% | x | -0.4% | x | 4.7% | 0.6%
# `O=c1[nH]c2c(cnn2-c2ccc(Cl)cc2)c(=O)n1-c1cccc(Cl)c1` as listed: u | x | -2.0% | x | 6.6% | 0.0%[46.1 µM] | 4.7% | 0.6%

# Next part.
SMILES,Lassa entry inh,Cruzain inh Det,StopGo reporter,Cruzain inh noDet,NS1 function inh,MARV entry inh,RE007 growth inh,SARS PLP yeast
Cc1nn(C)c(C)c1CCC(=O)N1CCCC(C(=O)c2cccc(OC(C)C)c2)C1 (stereo not given),x,x,u,x,-3.7%,x,15.2%,-0.1%
CC(C)(C(=O)Nc1nccs1)c1ccccc1,9.5%,x,-14.5%,x,16.5%,-13.8%[46.1 µM],-13.5%,1.3%
Cc1cc(C)cc(OCc2nnc(SCC(=O)c3ccccc3)o2)c1,u,-1.4%,-17.1%,-5.2%,-3.8%,-5.7%,-9.3%,-4.6%
CCc1ccc(C2CC(=O)Oc3c2c(=O)n(C)c2ccccc32)cc1 (stereo not given),-1.4%[46.1 µM],-3.8%,-0.5%,5.6%,x,0.2%[46.1 µM],x,x
CCOCc1nnc(NC(=O)CS(=O)(=O)c2ccc(C)cc2)s1,0.2%[46.1 µM],x,-15.9%,x,3.6%,0.7%[46.1 µM],-4.2%,-0.6%
COc1ccc([N+](=O)[O-])cc1C(=O)C(=O)c1ccccc1,x,x,-16.6%,x,3.7%,x,-22.4%,5.9%
COc1ccc(Br)cc1CNC(=O)CCCc1cn(C)c2ccccc12,-30.0%,-5.9%,-17.2%,-3.8%,7.5%,-3.6%,-1.3%,-7.3%
CCC(C)NC(=O)c1ccc2nc(Cc3ccc(OC)cc3)oc2c1 (stereo not given),u,-2.0%,30.7%&0.0%[activator],0.9%,-6.1%,2.8%[46.1 µM],1.4%,2.1%
CC(C)n1c(SCC(=O)N2CCN(C)CC2)nc2c1c(=O)n(C)c(=O)n2C,-1.8%,x,0.0%,x,5.8%,-1.3%[46.1 µM],-5.8%,-0.4%
O=C(CCCc1ccccc1)NCCC1=CCCCC1,10.0%,x,71.6%[activator],x,-9.0%,5.8%[14.2 µM],35.2%,-2.2%
COc1ccc(Cl)cc1NC(=O)CSc1nc(-c2ccccc2)c2ccccc2n1,18.1%[46.1 µM],2.3%,-25.7%,-9.8%,x,0.2%[46.1 µM],x,x
Cn1c(=O)[nH]c(=O)c2c1nc(Br)n2CC(O)COc1ccccc1 (stereo not given),0.0%,1.3%,x,11.0%,7.08µM*,6.6%,-3.3%,17.5%
N=c1oc2cc(O)ccc2cc1C(=O)Nc1ccc(F)cc1,u,x,-17.5%,x,-37.3%,7.9%[46.1 µM],-9.2%,-9.7%
CCS(=O)(=O)N1Cc2ccccc2CC1C(=O)N1CCN(c2ccccc2)CC1 (stereo not given),-13.7%,-0.9%,-10.8%,-2.2%,7.6%,-11.3%,-4.3%,3.8%
